# Screening data deposited in PubChem BioAssay by National Center for Advancing Translational Sciences (NCATS).
# D2 agonist – Beta-Arrestin HTS for Positive Allosteric Modulators of the Human D2 Dopamine Receptor: Agonists; DiscoveRx PathHunter D2 beta-arrestin, luminescence, 90 min; 100% = 57 uM dopamine signal; D(2) dopamine receptor (Homo sapiens), P14416; actives 0.084% (n = 360,000); activation, % (no concentration beside the values); AID 624465, 2012; in the data active = activation above about 40%; inconclusive = about 15% to 40%; inactive = below about 15%; note: compound concentration not given in the record; the text of the record calls up to 30% inactive
# Target sequence (P14416 whole entry, looked up): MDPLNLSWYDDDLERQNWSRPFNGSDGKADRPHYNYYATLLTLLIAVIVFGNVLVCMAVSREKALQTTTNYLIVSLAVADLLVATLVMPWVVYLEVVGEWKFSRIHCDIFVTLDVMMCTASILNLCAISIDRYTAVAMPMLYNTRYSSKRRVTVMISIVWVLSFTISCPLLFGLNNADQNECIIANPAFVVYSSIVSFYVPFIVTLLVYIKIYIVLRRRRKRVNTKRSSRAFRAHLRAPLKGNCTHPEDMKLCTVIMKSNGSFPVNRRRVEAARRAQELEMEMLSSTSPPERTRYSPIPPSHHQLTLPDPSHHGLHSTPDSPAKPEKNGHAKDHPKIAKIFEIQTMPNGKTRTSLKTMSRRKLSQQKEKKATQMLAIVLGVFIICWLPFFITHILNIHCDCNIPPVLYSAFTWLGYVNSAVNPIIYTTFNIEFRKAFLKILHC
#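 DiscoveRx PathHunter D2 beta-arrestin cells (2,100/well) attached overnight, then compound-stimulated 90 min at 37 C in HBSS/10 mM HEPES/0.1% Tween-20 buffer; beta-galactosidase complementation read by luminescence after 1 h at ambient temperature. Dopamine 57 uM final (EC100) as control.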
# Six1-Eya2 inh – qHTS Assay for Inhibitors of the Six1/Eya2 Interaction; Homeobox protein SIX1 (Homo sapiens) + Protein phosphatase EYA2 (Homo sapiens), …; AlphaScreen GST-Six1/His-Eya2 binding, biochemical; stronger effect = lower value; control for the full effect not named in the record; activity change, % (no concentration beside the values); actives 0.56% (n = 360,000); AID 651725, 2012; in the data active = activity change below about -65%; inconclusive = about -30% to -65%; inactive = above about -30%; note: % is set by controls: 0 for no effect and ±100 for the full control effect; compound concentration not given in the record
#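 Homogeneous AlphaScreen proximity assay pairing GST-Six1 with His-tagged Eya2 (added as 5X mix: 250 nM and 500 nM) in 50 mM Tris pH 8.0, 300 mM NaCl, 1 mM TCEP. Glutathione donor and nickel acceptor beads; 1 h, 37 °C, dark.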
# D2 potentiator – Beta-Arrestin HTS for Positive Allosteric Modulators of the Human D2 Dopamine Receptor: Potentiators. actives 0.23% (n = 360,000). potentiation, % (test concentration not listed). DiscoveRx D2 beta-arrestin cells, luminescence, 90 min; 100% = 57 uM dopamine signal. D(2) dopamine receptor (Homo sapiens), P14416. AID 624464, 2012; active = potentiation of 50% or more; inconclusive = 30% to 50%; inactive = 30% or less;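 note: compound concentration not given in the record; tested on top of an EC20 dose of dopamine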
#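 D2 cells co-treated with compound plus 50 nM dopamine (EC20) for 90 min at 37 deg C to detect potentiation. Beta-arrestin recruitment was read as enzyme-fragment luminescence after 1 h at ambient temperature. Full response was set by 57 uM dopamine.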
# Sfp PPTase inh – qHTS Assay for Inhibitors of Bacillus subtilis Sfp phosphopantetheinyl transferase (PPTase); 4'-phosphopantetheinyl transferase ffp (Bacillus subtilis), Q9F4F7; Biochemical Sfp PPTase activity, qHTS; Potency, µM, for the others: max response, negative = inhibition, usual class: inhibitors; actives 3.5% (n = 310,000); active = well fitted inhibition curve with a large enough effect; inconclusive = small, poorly fitted or top-dose-only effect, or another doubt; inactive = no such curve, though single readings can be large or run the other way;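 note: the enzyme is Sfp with the accession as filed and its product quenches rhodamine fluorescence; potency is the fitted concentration of half-maximal effect; 0% = enzyme reaction without inhibitor and -100% = no enzyme wells; top concentration of the series not given in the record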
#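 After 15 min at room temperature with compound, 15 nM Sfp received 5 uM rhodamine-CoA plus 12.5 uM BHQ-2-ybbR (50 mM Hepes pH 7.6, 10 mM MgCl2). Rate came from the fluorescence difference over 30 min, ex 525/em 598 nm.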
# TRPV1 potentiator – HTS Assay for Compounds that Act as Potentiators of the Vanilloid Receptor 1 | Transient receptor potential cation channel subfamily V member 1 (Homo sapiens), Q8NER1 | TRPV1-expressing cells, Fluo-8 calcium influx, capsaicin EC20 potentiation; host cell line not named in the record; control for the full effect not named in the record | potentiation, % at 8.33 µM | actives 0.02% (n = 320,000); active means potentiation above 80%; inconclusive means 30% to 80%; inactive means below 30%; note: 0% is about no effect
#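 Fluo-8 calcium influx in TRPV1-expressing cells, kinetic read (ex 480/em 520 nm). Compound added and read 3 min for agonist activity, followed by capsaicin at EC20 final and 2 min further read for enhancement.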
# CtBP-E1A blk – qHTS Assay for Inhibitors of the CtBP/E1A Interaction; CtBP / adenovirus E1A interaction (AlphaScreen); AlphaScreen GST-E1A/His-CtBP binding, 1536-well; stronger effect = lower value; control for the full effect not named in the record; activity change, % (concentration not given with the values); actives 0.49% (n = 340,000); AID 651724, 2012; in the data active means activity change below about -65%; inconclusive means about -30% to -65%; inactive means above about -30%; note: % is set by controls: 0 for no effect and ±100 for the full control effect
#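 AlphaScreen with 125 nM GST-E1A and 125 nM His-CtBP (5X stocks) in Tris pH 8.0, 300 mM NaCl, BSA, Tween 20, TCEP. Compounds preincubated 2 h at 37 deg C, then glutathione donor/nickel acceptor beads added for 1 h at 37 deg C in dark.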
# PINK1 modulator – A Quantitative High throughput Screen to Identify Chemical Modulators of PINK1 Expression; PINK1 immunofluorescence, high-content cytometry, 24 h; Potency, µM (top dose mostly 76.6 µM), for inactives: at the highest dose activation (PINK1 increase), usual class: activators; actives 0.2% (n = 410,000); AID 624263, 2012; active = well fitted activation curve with a large enough effect; inconclusive = small, poorly fitted or top-dose-only effect; inactive = flat fitted curve, though single readings scatter; cell line not stated here;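 note: potency is the fitted concentration of half-maximal effect; % of control where 0% means no effect; nearly all actives have a fitted effect of over 65% in size; a mitochondrial uncoupler was the plate control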
#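 PINK1 protein level read as immunofluorescence by microplate cytometer in a fixed, stained stable cell line after 24 h exposure to five compound concentrations, with CCCP as control.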
# * = called active by the depositor; ? = inconclusive; / = no result given; [ ] = dose if it differs, or a comment.
SMILES,D2 agonist,Six1-Eya2 inh,D2 potentiator,Sfp PPTase inh,TRPV1 potentiator,CtBP-E1A blk,PINK1 modulator
O=S(=O)(Nc1ccc(-c2ccc3nncn3n2)cc1)c1cccc(F)c1,-4.9,-7,29,/,-1,4,1.4%
O=C(c1ccc(F)cc1)N1CCN(C2CC3CCC2C3)CC1 (stereo not drawn),-1.2,0,-12,5%,-10,2,1.7%[38.3 µM]
COc1ccc([C@H]2C[C@H](O)[C@@H](n3cc(C4CC4)nn3)CN2C(=O)C2CCCCC2)cc1,0.7,0,/,/,/,3,0.2%
CCc1ccc(CN2C(=O)c3ccccc3C2C(=O)NCC2CCCO2)cc1 (stereo not drawn),0.2,1,-4,11%,-5,-3,0.6%
COc1cc(CNCc2ccccn2)ccc1OCC(N)=O,1.6,?,6,89µM*,/,-2,/
Cc1cc(C)c(S(=O)(=O)N2CCOC2CNC(=O)C(=O)NCCCN2CCOCC2)c(C)c1 (stereo not drawn),-4.0,7,3,-8%,-20,-3,-2.6%
CCOC(=O)c1sc(Nc2ccccc2Cl)nc1C,-1.2,14,-14,-15%,-26,7,13%
Cc1cn(CCOc2ccc(Cl)cc2)c(=O)[nH]c1=O,-1.5,3,-4,7%,16,-8,-1.6%
O=C(NCCCN1CCCC1=O)c1ccc(NS(=O)(=O)c2cccc([N+](=O)[O-])c2)cc1,-1.1,8,2,/,-5,-8,-0.7%
CCOC(=O)/C=C/C(=O)OCC(=O)Nc1ccc(C)cc1,-4.6,2,-1,6%,16,-20,-2.0%
O=C(O)/C(=C\c1ccc(-c2ccc(F)cc2)o1)c1ccccc1,-3.8,-2,-6,8.9µM*,0,3,-1.9%
O=C(c1oc2ccccc2c1CSCc1ccccc1)N1CCN(c2ncccn2)CC1,-3.7,-2,-11,-4%,6,-11,-0.5%
CCOC(=O)/C=C/C(=O)Nc1ccc(S(=O)(=O)N2CCCCCC2)cc1,-2.8,11,-5,0%,-5,3,1.1%
CN(C(=O)c1cccc(NC(=O)c2ccco2)c1)c1ccccc1,-2.8,0,2,-5%,-16,6,0.4%
COCCN(C(=O)CNC(=O)c1ccco1)C(C(=O)NC1CCCC1)c1ccc(OC)c(OC)c1 (stereo not drawn),-1.6,4,-2,10%,4,7,-0.4%
CC1CCN(c2ccc3nnc(CCC(=O)NCC(C)c4ccccc4)n3n2)CC1 (stereo not drawn),5.2,-2,-5,0%,7,/,0.0%
O=C(Cn1c(SCC(=O)N2CCc3ccccc3C2)nc2ccccc21)NC1CCCC1,-2.0,1,-9,2%,-11,4,2.4%
COc1ccc(N(C(=O)c2snc(C(N)=O)c2N)C(C(=O)NCc2ccc(F)cc2)c2ccc(O)cc2)cc1 (stereo not drawn),-2.8,-2,-3,12%,27,-2,9.7%
CCc1ccc([C@@H]2C[C@H]3[C@@H](CN2S(=O)(=O)c2ccc(C)cc2)C(=O)C[C@@H](c2ccccc2)N3S(=O)(=O)c2ccc(C)cc2)cc1,-6.0,1,3,/,/,0,0.3%
Cc1cccc(C)c1OCC(=O)Nc1cccc(-c2nnc(-c3ccccc3)o2)c1,-2.2,-7,8,3%,-4,1,1.6%
C=CCn1c(SCC(=O)NCCCO)nc2sc3c(c2c1=O)CCC3,-3.0,5,1,22%,12,-3,-0.2%
OCCC1CCCCN1CC(O)COCc1ccc(Cl)cc1 (stereo not drawn),0.8,6,-5,-14%,-17,-7,2.0%
CC1C(=O)C(C)(C)C(=O)OC1c1ccc([N+](=O)[O-])cc1 (stereo not drawn),3.0,-3,-7,2%,-14,/,0.8%
CCn1c2c(c3cc(Cl)ccc31)CCCC2=O,-2.9,4,-2,3%,2,5,7.5%
Cc1cc(N2CCN(c3ccccc3)CC2)nc(NCc2ccccc2)n1,-3.8,-4,-20,?,-22,-9,2.2%
Cc1ccc(S(=O)(=O)NCc2ccccc2)cc1C(=O)NC(C)c1ccc(S(N)(=O)=O)cc1 (stereo not drawn),-3.0,7,4,/,2,1,3.5%
c1ccc(-c2ccc(OCCCn3cncn3)cc2)cc1,1.2,13,-3,-25%,5,1,0.3%
CCN1CCN(CCNC(=O)c2ccc(/C=C3/Sc4ccccc4N(Cc4ccccc4C)C3=O)cc2)CC1,1.2,-2,-4,40µM*,-7,-12,-0.6%
COCCCN1C(=O)C(=O)/C(=C(/O)c2ccc(C)cc2)C1/C=C/c1ccccc1 (stereo not drawn),-0.2,-1,-5,10%,9,7,1.4%
COc1ccc(NC(=O)CN(C)C(=O)CSCc2ccc(C)cc2)cc1,-4.0,-2,-7,/,-23,-4,1.5%
C[C@@H]1CN([C@H](C)CO)C(=O)Cc2cc(NC(=O)CCC(F)(F)F)ccc2O[C@@H]1CN(C)C(=O)Nc1ccccc1,-0.3,4,-4,/,/,5,-0.7%
CC1CCCC(NC(=O)c2cccs2)C1C (stereo not drawn),-3.7,11,-5,/,-18,/,-2.0%
CC(=O)c1ccc(-c2nnc(CCC(=O)N3CCCC(C(=O)CC(C)C)C3)o2)s1 (stereo not drawn),0.7,3,-23,7%,-4,3,-1.4%
CCOC(=O)c1sc2ncn(/N=C/c3cccnc3)c(=O)c2c1C,-2.9,-7,-17,2%,16,-2,1.1%
COc1cccc(C2=NO[C@@H]3C(=O)N(Cc4ccccc4)C(=O)[C@H]23)c1OC,-3.0,7,-15,-2%,2,6,0.5%
CN(C)c1ccc(C(=O)c2ccc(N(C)C)c3ccccc23)cc1,0.2,-16,-27,-11%,2,-20,0.8%
COc1ccccc1C(=O)OCc1nc(N)nc(Nc2ccccc2C)n1,3.5,1,3,8%,15,-29,-0.3%
CC1CC(C)CN(C(=O)CNC(=O)c2ccc3ccccc3c2)C1 (stereo not drawn),2.3,6,-5,-2%,6,3,0.1%
COc1ccc(S(=O)(=O)NCC2CCCN(C(=O)c3ccco3)C2)cc1 (stereo not drawn),-6.6,-3,-14,0%,-1,2,0.8%
OC(C#CCN1CCCCC1)c1ccccc1 (stereo not drawn),-3.4,-1,1,2%,-5,2,-1.9%
O=C(CCSc1nc(-c2ccco2)cc(C(F)(F)F)n1)Nc1ccc2c(c1)OCO2,-3.9,-19,10,24%,-15,-7,-2.0%
Oc1sc(C=Nc2ccc(F)cc2)c2ccccc12,-0.8,-4,?,14µM*,-10,11,6.6%
COc1ccc2c(c1)C1NC(=S)NC(C)(O2)C1C(=O)Nc1ccc(C)cc1C (stereo not drawn),-7.3,-1,-6,6%,-2,-2,-1.0%
CC1=CC(C)(C)NC(=S)N1c1cc(C)cc(C)c1,?,-4,-2,12%,-4,7,1.3%
FC(F)(F)c1ccc2c(c1)NCC1CCCN21 (stereo not drawn),-0.2,?,3,-7%,-1,-25,1.1%

# Ordered by value in Six1-Eya2 inh (high to low): some entries from above
Structure | D2 agonist | Six1-Eya2 inh | D2 potentiator | Sfp PPTase inh | CtBP-E1A blk | PINK1 modulator
COc1ccccc1C(=O)OCc1nc(N)nc(Nc2ccccc2C)n1 | 3.5 | 1 | 3 | 8% | -29 | -0.3%
OC(C#CCN1CCCCC1)c1ccccc1 (stereo not drawn) | -3.4 | -1 | 1 | 2% | 2 | -1.9%
Cc1cccc(C)c1OCC(=O)Nc1cccc(-c2nnc(-c3ccccc3)o2)c1 | -2.2 | -7 | 8 | 3% | 1 | 1.6%

# More compounds.
SMILES,D2 agonist,Six1-Eya2 inh,D2 potentiator,Sfp PPTase inh,TRPV1 potentiator,CtBP-E1A blk,PINK1 modulator
CCN(CC)S(=O)(=O)c1ccc(/C=C/C(=O)Nc2ccc(N3CCOCC3)cc2)cc1,-4.7,-17,-19,9%,-18,/,7.2%
CCCNC(=O)c1cc(C2CCCCN2C(=O)c2ccccc2)on1 (stereo not drawn),-3.8,2,4,/,/,10,0.1%
Cc1cccc(C)c1NC(=O)C1(N(Cc2ccco2)C(=O)CC2NC(=O)NC2=O)CCCC1 (stereo not drawn),-3.4,0,-17,5%,3,3,-1.2%
COCCSc1nnc(NC(=O)C2CC(=O)N(c3ccc(Cl)cc3)C2)s1 (stereo not drawn),-2.6,-26,-4,12%,-14,-9,-1.2%
Cc1cccc(S(=O)(=O)N(C)C[C@@H]2OCc3cnnn3CCCC(=O)N([C@H](C)CO)C[C@H]2C)c1,-9.3,3,-2,/,/,-7,1.6%
CCCCn1nnnc1C(c1cc2ccccc2o1)N(Cc1ccccc1)Cc1ccccc1 (stereo not drawn),/,7,/,/,/,7,0.1%
O=C(CN1CCN(Cc2ccccc2)CC1)N/N=C/c1c[nH]c2ccccc12,1.7,1,-26,22%,9,-8,-0.5%
Cc1ccc(-c2noc(CCC(=O)NCCCN3CCN(c4ccc(F)cc4)CC3)n2)cc1,-0.5,-1,-12,0%,7,-5,8.0%
CCNS(=O)(=O)c1ccc(CCC(=O)N2CCc3ccccc3C2)cc1,-2.6,9,-15,13%,0,-8,-1.0%
C=CCn1c(=S)[nH]c2cc(-c3ccccc3)sc2c1=O,-0.4,-2,0,12%,-18,-5,-2.6%
COc1ccc(S(=O)(=O)N2CCOCC2)cc1NC(=O)CCNC(=O)c1ccc([N+](=O)[O-])cc1,3.8,1,3,/,-3,-1,2.1%
COc1ccc(C(=O)/C=C/NCc2ccc(C)cc2)cc1,-4.0,-11,-12,/,/,-2,0.6%
COc1ccc(N=C2SC(CC(=O)Nc3cccc(Cl)c3)C(=O)N2Cc2ccco2)cc1 (stereo not drawn),0.7,-14,-1,19%,3,-13,?
O=C(CCc1ccccc1)NCC(=O)N/N=C/c1ccc2c(c1)OCO2,-6.8,6,-6,25%,1,/,0.1%
Cc1nnc(SC(C)C(=O)c2c[nH]c3ccccc23)n1C1CC1 (stereo not drawn),2.0,9,2,/,/,31,1.8%
CN(C)S(=O)(=O)c1cccc(NC(=O)Cc2ccsc2)c1,-1.7,-5,-9,5%,-3,-14,0.7%

# Rows are unselected; any-hit rate near 3.7%.
